High-throughput results from PubChem BioAssay.
Autofluor counter = compound fluorescence in toxin protease inhibitor counterscreen; compound autofluorescence counterscreen, microsphere flow cytometry; active compounds read high; fluorescence intensity (concentration not given with the values); 360,000 compounds, 3.1% hits;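 active = at least 3 SD above the mean of all compounds, about 16000 in these data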;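 also: 100 nL of 1 mM stock went into each well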
RN4220 kill = S. aureus RN4220 growth inhibition; OD600, 16 h; inhibition, % (concentration not given with the values); 330,000 compounds, 0.33% hits;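 active = z-score of -3 or lower and OD600 up to 0.18 on both plates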;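 also: plate controls were untreated cells for no effect and reference antibiotic for full effect; stock transfer was 100 nL into about 80 µL; one replicate is shown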
BJeLR lethal = kills HRASV12-expressing BJeLR cells; inhibition, % (test concentration not listed); 300,000 compounds, 0.17% hits; BJeLR (HRASV12) viability, CellTiter-Glo ATP luminescence, 48 h; reference of the scale not given here;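 active = replicate mean above 50%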;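 also: 50 nL library stock added to about 25 µL; numbers are from one replicate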
PrP 5UTR inh = suppresses PrP 5' UTR mRNA reporter expression. cell-based PrP 5' UTR mRNA reporter, plate reader. inhibition, % (concentration not given with the values). 340,000 compounds, 0.35% hits. AID 488862;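 active = every replicate at 50% or more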;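 also: 0 = median of the neutral control wells; tested in H4 reporter cells; numbers are from one replicate; inactives centre near -14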
Mtb hypoxia inh = reduces hypoxia-regulated biosensor signal in M. tuberculosis | M. tuberculosis hypoxia-regulated fluorescent reporter, fluorescence | fluorescence inhibition, % (no concentration beside the values) | 300,000 compounds, 0.1% hits;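 active = 35 to 45% if threefold the growth effect, above 45% if 1.5-fold the growth effect; inactive = the rest, general growth blockers included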;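 also: wells of about 50 µL received 100 nL stock; 0% = vehicle wells and 100% = reference inhibitor wells; whole bacteria with a GFP reporter of the hypoxia response; strong numbers were not always called active; many hits fall short of the cut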
ugtP null kill = compounds lethal to S. aureus RN4220 ugtP deletion mutant; OD600 growth, 16 h; some inactives read as strong as hits; growth inhibition, % (test concentration not listed); 330,000 compounds, 0.54% hits; AID 1259309;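 active = z-score under -3 and OD600 up to 0.15 on both plates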;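 also: plate controls were untreated wells for no effect and antibiotic for full effect; wells of about 80 µL received 100 nL stock; the first replicate is given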
Mtb hypoxia inh growth = second read-out of Mtb hypoxia inh, no call of its own (marks repeat the call); growth inhibition, %; measured here: M. tuberculosis growth (absorbance);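 0% = vehicle and 100% = reference antibiotic; read after six days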
* hit, by the source's call; nt = no result given.

molecule	PrP 5UTR inh	Mtb hypoxia inh growth	Mtb hypoxia inh	RN4220 kill	ugtP null kill	BJeLR lethal	Autofluor counter
Cc1ccc(NC(=O)CSc2nnc(C3COc4ccccc4O3)o2)c(Cl)c1 (stereo not given)	-22.1	-3.1	12.3	9.5	3.3	-0.5	4525
Cc1ccc(Cn2nc(C)c(NC(=O)CCCn3nc([N+](=O)[O-])c(Cl)c3C)c2C)cc1	2.6	4.7	5.5	1.5	-2.3	3.1	6983
CCOc1cc(S(=O)(=O)NCc2ccccc2)ccc1Br	-29.6	7.4	6.3	4.9	-7.5	-3.4	4603
CC(=O)c1cccc(NC(=O)CC(C)n2ccnc2)c1 (stereo not given)	-15.3	-11.6	-6.9	-1.5	1.4	-6.4	3236
O=C(Nc1cccc(Cl)c1)c1c(O)c2c(n(Cc3ccco3)c1=O)CCCC2	nt	7.2	-0.4	-2.7	-5.6	-3.2	nt
O=C(COc1cc(F)ccc1[N+](=O)[O-])N1N=C(c2cccs2)CC1c1ccco1 (stereo not given)	-46.7	2.4	5.2	2.1	-5.3	nt	8143
COCCNC(=O)CN1C(=O)NC2(CCOc3ccccc32)C1=O (stereo not given)	6.4	3.1	-6.4	-1.3	7.4	1.3	3682
Cc1cc(C(=O)CSc2nnnn2-c2ccc(Cl)cc2)c(C)n1CC1CCCO1 (stereo not given)	7.7	7.4	-3.3	5.2	0.3	0.1	8960
COCCn1cnnc1SCC(=O)Nc1sccc1C(N)=O	-0.5	7.6	13.1	2.8	2.5	2.2	4488
Cc1ccccc1C(=O)Nc1cc(NC(=O)c2ccccc2C)cc(C(=O)O)c1	-8.4	-1.1	-4.0	0.4	3.4	-4.5	3516
Cc1cc(NC(=O)c2cncc(Br)c2)no1	-28.0	6.0	14.8	2.8	5.7	-12.4	8976
C=CCSc1nc2ccccc2n1S(=O)(=O)c1ccc(Cl)cc1	-5.7	nt	nt	2.8	2.1	4.2	3570
CC(C)OC(=O)CC1=NC(=O)CS1	-7.0	-1.3	7.5	5.8	4.0	-8.4	3308
CCCc1c(NC(=O)Nc2ccc(F)cc2)cnn1-c1ccccc1	-11.4	7.3	-4.0	-3.0	-8.8	8.8	4296
CCOC(=O)C1C2COc3ccc(OC)cc3C2N2C(=O)CNC(=O)[C@@]12C (stereo not given in full)	nt	8.2	4.6	3.7	3.2	nt	nt

Next records follow.
molecule	PrP 5UTR inh	Mtb hypoxia inh growth	Mtb hypoxia inh	RN4220 kill	ugtP null kill	BJeLR lethal	Autofluor counter
CC(C)NC(=O)N(C)C[C@H]1Oc2ccc(NC(=O)Cn3cnnn3)cc2C(=O)N([C@H](C)CO)C[C@@H]1C	-6.4	-5.9	-14.0	5.1	1.6	nt	3948
O=C(O)C1CC=CCC1C(=O)NCCc1cccc(Cl)c1 (stereo not given)	nt	2.8	3.6	-0.4	-1.5	2.1	11324
Cc1ccc(NC(=O)CC2NCCN(Cc3ccccc3)C2=O)cc1 (stereo not given)	-12.9	5.5	-0.8	4.2	-2.0	-3.0	4432
O=C(CC1NCCc2ccccc21)Nc1ccc(Oc2ccccc2)cc1 (stereo not given)	-14.8	9.4	8.0	0.3	10.7	8.8	5171
CCN(CC)S(=O)(=O)c1ccc(-c2csc(C)n2)s1	-16.0	7.8	11.3	4.6	7.5	-2.3	nt
CC(=O)Nc1ccc(SC[C@H](CC(C)C)N2CCN(CCc3ccccc3)CCC2=O)cc1	-14.9	nt	nt	nt	nt	1.6	4220
O=C(O)c1ccc(Nc2nc(-c3ccccc3)cs2)cc1	-97.3	3.2	10.0	0.9	17.1	1.5	2356
CCN(CC(=O)Nc1c(F)cccc1F)C(=O)c1ccc(S(=O)(=O)N(CC)c2ccccc2)cc1	-19.8	31.1	23.6	2.8	-3.6	nt	4012
O=C(Cn1ncc2c([nH]c3ccccc32)c1=O)Nc1ccc(CN2CCCCC2)cc1	-44.8	-2.6	4.9	5.4	2.6	7.7	5483
CCCC(=O)NCCCCNC(=O)CCC	-27.2	nt	nt	7.0	4.0	-4.4	2364
Cc1ccc(NC(=O)c2ncn[nH]2)cc1	-18.1	-0.3	-5.1	1.7	3.1	-2.4	2425
COc1ccc(N2C(=O)CC(Sc3nc(C)cc(C)n3)C2=O)cc1OC (stereo not given)	5.6	12.4	-1.9	6.2	6.6	-9.0	3610
O=C(COC(=O)c1ccc(Cl)cc1)NCC1CCCCC1	-16.7	14.4	4.3	2.8	-4.7	nt	3644
Cc1ccc(N(CC(=O)NN=C2CCN(C)CC2)S(=O)(=O)c2ccc(C)cc2)cc1	-15.3	-1.3	0.9	3.7	2.9	-6.1	2248
Oc1ccccc1CNn1cnnc1	-28.6	-3.7	10.8	7.4	-1.6	-4.9	2510

Next structures:
molecule	PrP 5UTR inh	Mtb hypoxia inh growth	Mtb hypoxia inh	RN4220 kill	ugtP null kill	BJeLR lethal	Autofluor counter
COc1ccc(C(=O)OCC[N+]2(C)CCOCC2)cc1	6.8	13.8	1.6	-3.0	12.1	11.7	4605
Cc1cccc(C)c1NC(=O)C1(N2C(=O)CC2c2ccccc2)CCCCC1 (stereo not given)	-8.6	-1.1	4.3	-3.5	-7.5	0.5	2613
CCOC(=O)c1n[nH]n(-c2cc(Cl)cc(Cl)c2)c1=O	-39.1	2.1	-1.6	5.9	0.6	-5.3	4636
O=C(CNC(=O)c1ccccc1F)N/N=C/c1cccnc1	-28.6	nt	nt	nt	nt	1.3	5436
Cc1ccc(N2C(=O)NC(=O)/C(=C/c3ccc(OC(=O)c4cccs4)cc3)C2=O)cc1	-37.7	12.6	4.6	20.3	17.1	-4.1	24767*
COc1cccc(OCCn2cc(C(C)=O)c3ccccc32)c1	-16.9	5.1	16.7	10.6	3.6	10.6	4188
CCCCCCCc1c(O)nc(SCCN(C)C)[nH]c1=O	-13.7	7.1	-1.1	2.6	4.8	2.6	4517
O=C(COC(=O)CCc1nc2ccccc2s1)Nc1ncc(Cl)cc1Cl	-14.9	-7.2	-2.2	10.4	4.4	18.9	8040
COc1cc2nc(/C=C/c3cc(OC)c(OC)c(OC)c3)sc2cc1SC	-8.1	10.9	-8.3	6.3	-16.9	nt	3237
CSCCC(=O)N(C)CC1CCN(CCc2cccc(C(F)(F)F)c2)CC1	-10.8	8.5	3.2	5.9	10.1	7.8	4522
O=C1C=C(NCc2ccc(Cl)c(Cl)c2)CC1	5.9	4.4	-1.1	0.3	-6.7	2.7	2765
CN(CCC#N)C(=O)COC(=O)c1cc(Cl)cc(Cl)c1N	-8.8	-2.3	16.8	4.8	4.5	-2.8	3589
CC(=O)C1=C(O)C(=O)N(c2ccc(Br)cn2)C1c1ccccc1F (stereo not given)	-37.8	10.4	2.9	-3.5	-6.4	9.9	2990
COc1cccc(OCC(=O)NNC(=O)c2cnccn2)c1	-19.4	9.7	9.8	10.6	-5.0	4.0	2362
O=C(CN(CC(=O)N1CCOCC1)S(=O)(=O)c1ccc(Br)s1)N1CCOCC1	-13.4	11.4	7.2	2.1	4.6	3.2	2302

The results go on.
molecule	PrP 5UTR inh	Mtb hypoxia inh growth	Mtb hypoxia inh	RN4220 kill	ugtP null kill	BJeLR lethal	Autofluor counter
Cc1cc(=O)oc2cc(NC(=O)c3ccccc3Cl)ccc12	-151.6	-5.8	-5.9	2.5	7.0	-0.3	5568
Brc1cccc(C=NNc2nn[nH]n2)c1	nt	5.0	9.0	4.1	3.7	nt	nt
COc1ccc(C)cc1NC(=O)c1c([N+](=O)[O-])cnn1C	-32.0	-1.1	11.5	1.6	7.9	-12.1	3785
COc1ccc(CNC(=O)Cn2nc(C(F)(F)F)cc2C)cc1	-58.4	9.7	19.2	6.1	0.3	-5.1	3004
CN(C(=O)COC(=O)c1nc(Cl)ccc1Cl)c1ccccc1	-19.4	4.9	-9.5	1.3	0.4	7.5	6732
COc1ccc(OCc2nnc(SC(C)C(=O)Nc3ccc(N4CCOCC4)cc3)n2C)cc1 (stereo not given)	-4.6	4.4	0.8	0.0	3.7	nt	7761
O=C1CCC(C(=O)N2CCc3ccccc3C2)CN1CCCN1CCOCC1 (stereo not given)	-1.2	8.9	-4.9	1.0	0.3	-2.5	5929
COc1ccc(OC)c(CCNC(=O)CN2C(=O)CCSc3ccccc32)c1	-14.2	3.2	0.1	2.1	6.4	-2.1	4101
Clc1cccc(NCc2ccccc2)n1	-8.4	6.3	14.8	9.1	-1.4	-1.2	3229
O=[N+]([O-])c1cccc(S(=O)(=O)c2ccc(NCCO)c([N+](=O)[O-])c2)c1	-23.5	6.3	-2.9	-2.1	-7.9	1.7	2622
O=[N+]([O-])c1cc(-n2cnnn2)ccc1N1CCC(Cc2ccccc2)CC1	-9.2	14.5	2.4	5.4	-19.6	1.4	16952*
S=c1[nH]nc(Cn2cnc3ccccc32)n1-c1ccccc1	-5.2	-10.0	-15.2	6.8	4.4	0.9	4324
O=C(CSc1ncn[nH]1)NCCc1ccc(Cl)cc1Cl	-19.7	9.1	-3.9	4.9	5.7	-7.7	3707
O=C(NCc1ccncc1)C1CCN(S(=O)(=O)c2cccc(C(F)(F)F)c2)CC1	-14.1	3.6	-7.1	1.5	-0.9	-8.5	6392
COc1cccc(-n2c(N)c(-c3nc4ccccc4[nH]3)sc2=S)c1	-26.2	7.6	-2.8	25.7	5.3	-5.7	3240

More records
molecule	PrP 5UTR inh	Mtb hypoxia inh growth	Mtb hypoxia inh	RN4220 kill	ugtP null kill	BJeLR lethal	Autofluor counter
CC1(c2ccccc2)NC(=O)N(CC(=O)Nc2ccc3c(c2)CCC3)C1=O (stereo not given)	-28.2	0.1	0.7	3.0	-2.1	nt	8699
COc1cccc2c(=O)n(CC(=O)Nc3ccc(F)cc3)ccc12	-8.4	0.3	2.4	-5.6	-7.5	11.5	4296
S=C(NCc1ccccc1)Nc1cccc(Cl)c1	-4.2	6.5	10.8	-4.4	-20.5	-7.0	4062
O=C(CSc1ncccn1)NCc1ccc2c(c1)OCO2	-14.4	11.1	3.5	1.5	4.1	-11.6	5693
O=C(NC1CC1)c1ccc2c(Cl)c3c(nc2c1)CCCC3	-29.9	3.6	15.0	6.1	-7.5	-9.7	2718
O=C(Nc1sc2c(c1C(=O)O)CCCC2)C(=O)N1CCOCC1	-24.5	-0.4	4.6	2.2	-3.3	8.9	5618
O=C(Nc1ccccc1C(=O)NCCc1ccc(O)cc1)c1ccco1	-0.7	-2.0	-15.5	4.8	0.6	4.4	4115
CC(CO)NC(=O)C1CC1C(NP(=O)(c1ccccc1)c1ccccc1)c1ccccc1 (stereo not given)	nt	-5.2	-1.8	-0.9	-5.2	nt	nt
CC(=O)NC(CCS(C)(=O)=O)C(=O)Nc1ccccc1 (stereo not given)	-19.1	1.4	7.4	-5.0	-1.3	-4.9	6003
COc1ccc(C)cc1NC(=O)CCNC(=O)c1ccco1	-10.7	-4.8	4.5	4.7	3.5	-8.7	2999
Cc1nnc(SCC(=O)Nc2nsc(-c3ccc(C(C)(C)C)cc3)n2)s1	-44.8	nt	nt	-3.2	12.2	3.2	4313
CC(C)(C)S(=O)(=O)N1C[C@@H]2C(=CC[C@H]3C(=O)N(c4ccccc4)C(=O)[C@@H]23)[C@@H]1CCO	-7.5	3.4	-6.3	0.3	-1.8	nt	3822
Cc1nc(SCC(=O)Nc2ccccn2)n[nH]1	-27.8	-4.5	-5.3	2.1	4.8	-6.2	4687
COc1ccc(CCCc2nnc(SCC(=O)Nc3ccccc3F)o2)cc1	-17.1	6.0	14.3	9.9	10.9	-6.9	4784
Nc1cc(N)nc(SCC(=O)NCC(=O)Nc2ccc(F)c(F)c2F)n1	-39.6	3.4	1.6	1.5	13.0	nt	3599
O=C(O)C1CC=CCC1C(=O)Nc1cccnc1 (stereo not given)	-18.5	2.6	-5.4	0.6	4.3	4.2	3470
Cc1c(NC(=O)c2cc(C(C)C)on2)c(=O)n(-c2ccccc2)n1C	-35.0	6.8	4.9	-2.3	19.2	8.6	9778
Cc1ccc(CNc2ccc3nnc(-c4ccccc4)n3n2)cc1	-31.0	8.9	7.8	3.0	0.3	-9.2	5229

Some of these compounds in order of molecular weight, falling.
molecule	PrP 5UTR inh	Mtb hypoxia inh growth	Mtb hypoxia inh	RN4220 kill	ugtP null kill	BJeLR lethal	Autofluor counter
O=C(Nc1ccccc1C(=O)NCCc1ccc(O)cc1)c1ccco1	-0.7	-2.0	-15.5	4.8	0.6	4.4	4115
Cc1ccc(CNc2ccc3nnc(-c4ccccc4)n3n2)cc1	-31.0	8.9	7.8	3.0	0.3	-9.2	5229
O=C(O)C1CC=CCC1C(=O)Nc1cccnc1 (stereo not given)	-18.5	2.6	-5.4	0.6	4.3	4.2	3470
